High-throughput results: PubChem, Fisher Drug Discovery Resource Center
NPYLR7 ag: mosquito NPYLR7 agonism. HEK293T NPYLR7/Galpha15, GCaMP6s calcium fluorescence. activation, % at 10 µM. actives 0.15% (n = 270,000); in the data active = activation above about 40%;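 note: 0% = vehicle and 100% = reference agonist at the receptor; some compounds past the cut are filed as inactive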
NPYLR7 ag max-min: second read-out of NPYLR7 ag, no call of its own (marks repeat the call); activation, %; measured here: Max-Min RFU normalised activation; some inactives read as strong as hits;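 span of the calcium signal over five minutes; 0% = vehicle and 100% = native peptide agonist; compound fluorescence can raise it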
An asterisk follows results filed as active; & = joins results of further samples. An excerpt (hit frequency here may not be typical).

SMILES	NPYLR7 ag	NPYLR7 ag max-min
COc1ccccc1C(=O)N(CCN(C)C)Cc1c(-c2ccccc2)noc1N1CCc2ccccc2C1	8	7
COc1cc(Cl)c(C(=O)N2CCOC(Cc3ccccc3)C2)cc1OC (stereo not given)	27	22
Cc1cnn(CCC(=O)N2CCCC(c3cc(C)[nH]n3)C2)c1 (stereo not given)	11	7
N#CCSc1nc2c(c(C3CC=CCC3)c1C#N)CCC2 (stereo not given)	-1	-2
c1ccc2c(c1)SCC/C2=N\Nc1ccc2ccccc2n1	3	909
CC(c1ccccc1)N(Cc1nc(C(=O)N2CCOCC2)co1)Cc1ccccc1C(F)(F)F (stereo not given)	-2	-9
Cc1nonc1CN(C)C(=O)CC1c2ccccc2CCc2ccccc21	6	1
CC(C)N(Cc1cn(C)nc1-c1ccc(Oc2ccccc2)cc1)Cc1nccn1C	2	0
Nc1ncccc1CN1CCN(C(c2ccccc2)c2ccccc2)CC1	17	18
O=C(CCC1CCCN(Cc2cccc3cnccc23)C1)NCc1ccc(F)c(F)c1 (stereo not given)	1	-4
CC1(C)C2CCC1(C)C(NC(=O)Cn1cnc3sc4c(c3c1=O)CCSC4)C2 (stereo not given)	9	4
O=S(=O)(c1ccc(C2=CSC3=NCCCN23)cc1)N1CCCCC1	9	13
Cc1ncc2c(c1CNC(=O)c1cccs1)CCN(C(=O)c1c(-c3ccccc3)noc1C)C2	6	3
O=C(O)[C@@H]1CCCN1C(=O)C12CC3CC(CC(C3)C1)C2	-8	-16
C/C(C=C1SC(=S)N(NC(=O)c2ccc(F)cc2)C1=O)=C/c1ccccc1	-3	-10
Cc1cc(C(=O)OCc2cc(=O)n3cc(Br)ccc3n2)on1	6	9
COc1ccc(C(=O)N2CCN(Cc3cc(=O)c(OCc4ccc(SC)cc4)co3)CC2)cc1OC	34	14
CCn1ccc(C(=O)N(CCN2CCOCC2)c2nc3c(OC)ccc(OC)c3s2)n1	3	3
CC1CC1C(=O)Nc1nnc(SCc2ccccc2F)s1 (stereo not given)	2	9
COCC(=O)N(Cc1ccc(F)cc1)Cc1cc(N)ccc1N(C)C	-3	-4
COc1cc(OC)cc(C2=NC(=Cc3cccc(OC)c3OC)C(=O)O2)c1	-4	-4
CCCN1CCC(CNC(=O)C2(c3cc(C)cc(C)c3)CC2)C1 (stereo not given)	-1	-2
Cc1nc(CNC(=O)CC2C(=O)NCCN2Cc2cccc(F)c2F)cs1 (stereo not given)	-7	-10
O=S1OC(c2ccccc2)(c2ccccc2)c2ccccc21 (stereo not given)	3	5
COc1ccc(CNC(=O)CCC2CCCN(Cc3ccc(C)s3)C2)c(OC)c1 (stereo not given)	6	7
Carrying on:
SMILES	NPYLR7 ag	NPYLR7 ag max-min
COc1ccc(S(=O)(=O)Nc2ccc(-c3ccc(N4CCC(C)CC4)nn3)cc2)cc1	-1	-3
CCc1cnc2c(c1OC)c(=O)n(CC(=O)N1CCOCC1)c(=O)n2C	2	2
O=C(Cn1nnn(-c2cccs2)c1=O)Nc1ccc2c(c1)OCCO2	2	18
CN(C)c1ncccc1Cn1c(=O)[nH]c2ccccc2c1=O	0	-1
Cc1ccsc1CN(Cc1nccn1C)C1CCCC1	13	6
CSc1ncc(CN2CCCC(CCC(=O)N3CCN(C)CC3)C2)cn1 (stereo not given)	3	4
CCc1nn(-c2ccccc2)c(Oc2ccc(C)cc2)c1CN(CCOC)CC(O)Cc1ccccc1 (stereo not given)	-1	6
CCc1noc(-c2cccc(NS(=O)(=O)NCc3ccccc3)c2)n1	0	-2
CSc1ccc(NC(=O)C2(C)CCN2C(=O)c2sccc2C)cc1 (stereo not given)	4	0
CC(=O)Nc1ccc(SCC(=O)N(C(C)C)C(C)C)nn1	-5	-5
COc1ccc(NC(=O)Cn2c(-c3nnc(C(C)C)o3)cc3ccccc32)cc1	-6	-5
Cc1ccc(-n2c(SCc3ccccc3C)nnc2C(C)NC(=O)c2ccc(Cl)c([N+](=O)[O-])c2)cc1 (stereo not given)	26	27
Cc1ccc(C(=O)NCCN(C)c2ccccc2)c(C)c1	-2	-1
Fc1ccc(Oc2cc(N3CCCCCC3)ncn2)cc1F	29	30
CSc1ncc(CN2CCCC(CNC(=O)c3n[nH]c4ccccc34)C2)cn1 (stereo not given)	1	-2
COc1ccccc1-c1cc(C(=O)N2CCN(c3cccc(C(F)(F)F)c3)CC2)nc2c(-c3ccccc3)c(C)nn12	8&18	6&13
CN(Cc1cc2n(n1)CCNC2)Cc1nc(-c2ccccc2)cs1	1	-1
CC(C)OCC(O)CN(Cc1cccn1C)C1CC1 (stereo not given)	0	12
Cn1ncc2c(N3CCCCC3)nc(N3CCCC3)nc21	6	3
CC1=C(C(=O)OCCc2ccccc2)C(c2ccc([N+](=O)[O-])s2)NC(=O)N1C (stereo not given)	21	12
Cc1ccc2nc(C)c(NC(=O)C(c3ccccc3)c3ccccc3)c(=O)n2c1	2	1
CCCc1noc(-c2ccc(Br)cc2)n1	-8	-15
CSc1ccc(C(=O)Oc2ccc(Br)cc2)cc1[N+](=O)[O-]	-1	-2
COC(=O)c1cc(-c2nccn2-c2ccc3cn[nH]c3c2)ccc1O	2	-2
COc1ccc(C2CC(O)(C(C)(C)O)NO2)cc1 (stereo not given)	5	4
Next section.
SMILES	NPYLR7 ag	NPYLR7 ag max-min
Cc1ccc(C)c(Cn2c(=O)c3c(nc4n(C)c(C)c(C)n34)n(C)c2=O)c1	2	-1
O=C(NN1C(=O)C2C3C=CC(C4CC34)C2C1=O)c1ccncc1 (stereo not given)	6	5
Cc1cccc(-c2nc(C)c(C)c(N3CCNCC3)n2)c1	-2	12
Cc1cc(OC(C)C(=O)Nc2ccon2)cc(C)c1Cl (stereo not given)	-1	6
CC1/C=C/C=C/C=C/C=C/C=C/C=C/C=C/C(O[C@@H]2O[C@H](C)[C@H](O)[C@@H](O)[C@@H]2N)CC(O)C(C(=O)O)C(O)CC(=O)CC(O)CC(O)CC(O)CC(=O)CCCC(=O)CC(=O)OC1C(C)CC(C)C(O)CC(=O)c1ccc(N)cc1 (stereo not given in full)	1	1
Cc1nc(C(C)C)sc1C(=O)N1CCNCC1C(=O)N1CCCC1 (stereo not given)	18	10
O=C(O)C1CC2(CCNCC2)CN1CCc1ccccc1 (stereo not given)	10	5
COCCCN(Cc1c(-c2cccc(C)c2)noc1N1CCCC1)C(=O)c1ccc(Cl)cc1	1	10
CCN(CC)S(=O)(=O)c1cccc(S(=O)(=O)c2ccc(Cl)c(Cl)c2)c1	-4	-6
O=C(CC1CSc2nc3[nH]ncc3c(=O)n21)Nc1ccc(Cl)cc1 (stereo not given)	1	25
OCCN1CCN(c2ncnc3ccc(Br)cc23)CC1	2	-1
C#CCN(CC=C)C(=O)CCc1nnc(COc2ccccc2)o1	3	8
COCCCNC(=O)c1nn(-c2cccc(C(F)(F)F)c2)c(=O)n(Cc2ccccc2F)c1=O	2	12
Cc1ccc(-n2c(SCC(=O)c3ccccc3)nc3c(c2=O)SC(C)C3)cc1 (stereo not given)	5	3
CCC1(C)NC(=O)N(CC(=O)NC(C)c2c(C)nn(C)c2C)C1=O (stereo not given)	4	1
CCN(Cc1ccc(Cl)s1)C(=O)c1cc(C2CC2)[nH]n1	-12	-14
COc1ccc(OC)c(NC(=O)C2(C)CCN2Cc2ccc(OC)c3ccccc23)c1 (stereo not given)	4	0
CC(=O)Oc1c(-c2ccc(NC(=O)c3cccs3)cc2)c(C(C)C)nn1-c1cccc(C)c1	20	23
O=C(C1C[C@@H]1c1ccccc1)N(Cc1nc2cc(Cl)ccc2o1)C1CCCC1 (stereo not given in full)	-3	2
Cc1ccc(-c2nnc(Nc3cccc(Cl)c3)c3ccccc23)cc1S(=O)(=O)N(C)C	-10	-15
Cc1c(C#N)c(SCc2ccc(S(=O)(=O)N(C)C)o2)nc2c1CCC2	25	-16
O=[N+]([O-])c1ccc(N=Nc2c(O)[nH]c3ccc(F)cc23)cc1	-10	-18
CCS(=O)(=O)Oc1cccc(CN(C(=O)C2CC2)C(C)C)c1	20	15
CCCc1nc(N2CCCN(S(=O)(=O)c3ccc(C)cc3)CC2)c2c(-c3ccccc3)noc2n1	20	7
C=CCN(C(=O)c1cnn(CCC)c1C)C1CCS(=O)(=O)C1 (stereo not given)	-1	-7
Next entries follow.
SMILES	NPYLR7 ag	NPYLR7 ag max-min
Cc1ccc2c(c1)SC(C(=O)N1CCN(Cc3csc(C(C)(C)C)n3)CC1)C2 (stereo not given)	-3	-4
CCC(C(=O)N1CCN(C(=O)CCCCSc2nnc(-c3ccccc3)n2-c2ccc(C)cc2)CC1C)c1ccccc1 (stereo not given)	-3	-3
COc1ccc(-c2nn(-c3ccccc3F)cc2CN2CCCN(C(C)=O)CC2)cc1	16	1
C=CCn1c(SCC(=O)NCC2CCCO2)nc2sc3c(c2c1=O)CCC3 (stereo not given)	5	3
CS(=O)(=O)N1CCCN(C(=O)c2ccccc2C2CCNC2)CC1 (stereo not given)	-4	-11
CCn1cc(C(CC(=O)N2CCCC2)c2cccc(C)c2)c2ccccc21 (stereo not given)	-2	2
C=Cc1ccc(CC2(C)C(=O)Nc3ccc(-c4ccc(F)c(Cl)c4)cc32)cc1 (stereo not given)	4	2
COc1ccccc1C(=O)N1CCN(c2oc(/C=C/c3cccs3)nc2C#N)CC1	-2	-2
CSc1ccccc1NC(=O)Cc1csc(-n2cccc2)n1	0	-1
Cc1ccc(CN2CCN(Cc3cn[nH]c3C3CCCCC3)CC2CCO)o1 (stereo not given)	6	6
COCCN1CC(C(=O)N2CC(n3nc(C)cc3C)C2)CC1=O (stereo not given)	4	2
Cc1nnc(-c2cc3ccccc3n2CC(=O)NCc2ccccc2Cl)o1	-8	-4
O=C(Nc1cccnc1)c1cccc(S(=O)(=O)N2CCOCC2)c1	-17	-23
O=C1CN(c2ccc(NC(=O)c3ccc4c(c3)COC4)cc2)CCN1	-1	-2
CSc1ccc(-c2cc(Nc3ccc4[nH]ccc4c3)ncn2)cc1	9	5
COc1ccc(C(O)(c2ccc(OC)cc2)c2ccc(CN(CCN3CCOCC3)Cc3cccc(C)c3)o2)cc1	-9	-2
CCOc1cccc2sc(NCCn3nc(C)cc3C)nc12	-3	-6
O=C(CCCn1cnnn1)NC1CC(=O)N(Cc2cccc3ccccc23)C1 (stereo not given)	-3	-5
CN=Cc1cc([N+](=O)[O-])ccc1Cl	17	12
Cc1cc(C(=O)N2CCN(c3cncc(-n4cccn4)n3)CC2)c(C)o1	4	2
O=C(Nc1ccc(Br)cc1Cl)c1ccc2c(c1)OCO2	16	4
CCOc1ccccc1C(=O)Nc1ccc(N2CCN(C(=O)NCc3ccc(Cl)cc3)CC2)nc1	16	14
Cc1ccccc1C(=O)Nc1cc(F)ccc1Sc1nccn1C	1	-2
Cc1cc(Cl)ccc1S(=O)(=O)NCCCn1cccn1	1	-3
CCN(Cc1ccccc1)C(=O)Nc1c[nH]c2ccccc12	2	-7

Rewritten with two lines to a compound: 14 of the compounds above.
Values in the order: NPYLR7 ag	NPYLR7 ag max-min
Cc1nnc(-c2cc3ccccc3n2CC(=O)NCc2ccccc2Cl)o1
  -8	-4
O=C(Nc1cccnc1)c1cccc(S(=O)(=O)N2CCOCC2)c1
  -17	-23
O=C1CN(c2ccc(NC(=O)c3ccc4c(c3)COC4)cc2)CCN1
  -1	-2
CSc1ccc(-c2cc(Nc3ccc4[nH]ccc4c3)ncn2)cc1
  9	5
COc1ccc(C(O)(c2ccc(OC)cc2)c2ccc(CN(CCN3CCOCC3)Cc3cccc(C)c3)o2)cc1
  -9	-2
CCOc1cccc2sc(NCCn3nc(C)cc3C)nc12
  -3	-6
O=C(CCCn1cnnn1)NC1CC(=O)N(Cc2cccc3ccccc23)C1 (stereo not given)
  -3	-5
CN=Cc1cc([N+](=O)[O-])ccc1Cl
  17	12
Cc1cc(C(=O)N2CCN(c3cncc(-n4cccn4)n3)CC2)c(C)o1
  4	2
O=C(Nc1ccc(Br)cc1Cl)c1ccc2c(c1)OCO2
  16	4
CCOc1ccccc1C(=O)Nc1ccc(N2CCN(C(=O)NCc3ccc(Cl)cc3)CC2)nc1
  16	14
Cc1ccccc1C(=O)Nc1cc(F)ccc1Sc1nccn1C
  1	-2
Cc1cc(Cl)ccc1S(=O)(=O)NCCCn1cccn1
  1	-3
CCN(Cc1ccccc1)C(=O)Nc1c[nH]c2ccccc12
  2	-7

(list continues)
SMILES	NPYLR7 ag	NPYLR7 ag max-min
O=c1ccccn1Cc1ccc(NS(=O)(=O)c2ccc(Cl)c(C(F)(F)F)c2)cc1	18	14
Cc1cc(C(=O)N2CCN(CC(OCc3ccc(C#N)cc3)c3cccc(N4CCCC4)c3)CC2)cc(Cl)n1 (stereo not given)	4	-1
N#Cc1cccc(NC(=O)OCCSc2ncccn2)c1	-2	-2
Cn1cnc2c1c(=O)n(CC(=O)NC1CCCCCCC1)c(=O)n2C	-2	-4
CSc1ccc(OCC(=O)Nc2ccc3c(c2)OCCO3)cc1	-14	-15
Cn1c(SCC(N)=O)nnc1-c1ccc(=O)n(C)c1	10	7
Cn1ccnc1CC(O)(c1ccccc1)c1ccccc1	3	1
Cc1nn(C)c(C)c1CCC(=O)NCc1cnn2ccccc12	-3	-8
Fc1ccc(-c2csc3ncnc(N4CCN(Cc5csc(-c6ccsc6)n5)CC4)c23)cc1	15	7
CCNC(=O)COc1c(C)cc(Br)cc1Cl	-1	-1
C=CCOCC1CN(CC2CC2)S(=O)(=O)c2cnccc2O1 (stereo not given)	-3	0
CC(=O)n1cc(CN2CCC3(CC2)C(=O)N(CCc2ccccc2)C(=O)N3C)c2ccccc21	17	4
CCn1c(C2CCCN(Cc3ccc(OC)c(C)c3C)C2)nn(C)c1=O (stereo not given)	3	1
Cc1ccc(CNc2cccc(C(=O)N3CCC(C(O)c4nccn4C)CC3)c2)cc1 (stereo not given)	-2	0
